SARS PLP yeast: inhibitors of SARS-CoV papain-like protease in yeast; S. cerevisiae expressing SARS-CoV PLpro, growth rescue; control for the full effect not named in the record; Potency, µM (series often up to 32.9 µM), for the others: at the highest dose activity, positive = growth rescue; actives 0.19% (n = 330,000); active means well fitted rising curve with a large enough effect; inconclusive means small, poorly fitted or top-dose-only effect; inactive means no such curve, though single readings can be large or run the other way; further: 0% is about no effect; nearly all actives have a fitted effect of over 55% in size; growth read by luminescence after 48 h
NS1 function inh: influenza NS1 inhibition | S. cerevisiae slowed by influenza A NS1, growth recovery by OD600 | Potency, µM (titrated, usually from 46.1 µM), without a hit: top-dose activity, positive = more growth | actives 0.4% (n = 270,000) | AID 2326; active means well fitted rising curve with a large enough effect; inconclusive means small, poorly fitted or top-dose-only effect; inactive means no such curve, though single readings can be large or run the other way; further: nearly all actives have a fitted effect of over 50% in size
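OD600 was taken as the measure of yeast growth restored by compound in an NS1-expressing S. cerevisiae strain. Cells had been washed out of glucose medium and diluted 1:100 into galactose -URA medium, pH 6.0.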
MARV entry inh: Marburg virus entry inhibition. Marburg virus pseudotyped entry inhibition, cell reporter; control for the full effect not named in the record; about a third of the inactives were read at about 46 µM. Potency, µM (top dose mostly 37.8 µM), without a hit: at the highest dose activity change, negative = inhibition, most hits filed as inhibitors. actives 1.8% (n = 300,000); active = well fitted inhibition curve with a large enough effect; inconclusive = small, poorly fitted or top-dose-only effect, or effect the other way; inactive = flat fitted curve, though single readings scatter; tested in HEK293 cells; about a fifth of its hits are not listed in these tables; further: on the % scale 0 is the no-effect control and ±100 the full control effect; luciferase read-out
RE007 growth inh: less growth of the S. pombe RE007 Vpr strain | S. pombe RE007 Vpr strain, BacTiter-Glo ATP luminescence, 24 h; control for the full effect not named in the record | actives 0.21% (n = 360,000) | AID 651644 | Potency, µM (highest dose often 92.2 µM), without a hit: top-dose activity change, negative = less growth; active = well fitted falling curve with a large enough effect; inconclusive = small, poorly fitted or top-dose-only effect; inactive = no such curve, though single readings can be large or run the other way;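 further: on the % scale 0 is the no-effect control and ±100 the full control effect; nearly all actives have a fitted effect of over 50% in size; the assay follows cell death caused by Vpr and the record does not say whether a fall means rescue or toxicity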
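Fission yeast strain RE007, carrying one chromosomally integrated HIV-1 vpr copy, was seeded at OD 0.01 in PMG+AL medium with 23 nL pinned compound. After 24 h at 30 °C and 99% humidity, viability was read by BacTiter-Glo luminescence.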
Cruzain noTriton: cruzain (T. cruzi) inhibition without detergent | P25779 | purified cruzain, Z-FR-AMC fluorescence, no detergent | Potency, µM, for inactives: max response, negative = inhibition, usual class: inhibitors | actives 2.3% (n = 200,000) | AID 1476;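 further: plate controls were enzyme without inhibitor for no effect and buffer without enzyme for full effect; nearly all actives have a fitted effect of over 40% in size; top concentration of the series not given in the record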
Target sequence (P25779 123-467 limits assumed): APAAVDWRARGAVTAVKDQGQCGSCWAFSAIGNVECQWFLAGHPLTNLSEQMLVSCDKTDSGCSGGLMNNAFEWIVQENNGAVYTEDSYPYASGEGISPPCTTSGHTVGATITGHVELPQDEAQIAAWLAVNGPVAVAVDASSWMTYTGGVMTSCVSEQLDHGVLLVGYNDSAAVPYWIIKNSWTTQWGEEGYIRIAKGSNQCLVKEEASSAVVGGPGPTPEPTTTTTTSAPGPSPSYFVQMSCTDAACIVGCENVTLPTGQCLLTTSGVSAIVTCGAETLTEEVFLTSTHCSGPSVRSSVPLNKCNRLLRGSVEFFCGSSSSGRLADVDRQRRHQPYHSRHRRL
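Detergent-free condition (0.00005% Triton X-100) in acetate buffer pH 5.5 with DTT. 1.5 nM enzyme and compound were pre-mixed 15 min, then 2 uM Z-FR-AMC substrate added; reaction progress from fluorescence change between first and third reads (60 s).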
Cruzain inh Det: blocks cruzain activity in presence of Triton detergent | P25779 | purified cruzain, Z-FR-AMC fluorescence, 0.01% Triton | Potency, µM, inactives show max response, negative = inhibition, hits mostly inhibitors | actives 0.43% (n = 200,000);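 further: plate controls were neutral wells for no effect and buffer without enzyme for full effect; nearly all actives have a fitted effect of over 40% in size; top concentration of the series not given in the record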
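Z-FR-AMC hydrolysis (2 uM substrate) by cruzain (1.5 nM) monitored kinetically at ex 360/em 450 nm after 15 min room-temperature compound exposure; 0.01% Triton X-100, pH 5.5, 5 mM DTT.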
StopGo reporter: FMDV 2A StopGo reporter, luciferase signal. human cells with a luciferase reporter of 2A StopGo recoding; control for the full effect not named in the record. actives 1.2% (n = 410,000). Potency, µM (doses to about 57.9 µM), inactives show at the highest dose signal change, negative = less light; active = well fitted falling curve with a large enough effect; inconclusive = small, poorly fitted or top-dose-only effect; inactive = no such curve, though single readings can be large or run the other way; tested in HEK293T cells; further: on the % scale 0 is the no-effect control and ±100 the full control effect; nearly all actives have a fitted effect of over 45% in size; luciferase light after 4 h
Lassa entry inh: Lassa virus entry inhibition | Potency, µM (highest dose often 37.9 µM), inactives show at the top dose activity change, negative = inhibition, actives largely listed as inhibitors | actives 1.2% (n = 300,000) | Lassa virus pseudotype entry inhibition, cell reporter; control for the full effect not named in the record; active means well fitted inhibition curve with a large enough effect; inconclusive means small, poorly fitted or top-dose-only effect, or effect the other way; inactive means flat fitted curve, though single readings scatter; tested in HEK293 cells; further: on the % scale 0 is the no-effect control and ±100 the full control effect; nearly all actives have a fitted effect of over 50% in size; luciferase read-out
The depositor's hits bear a star; ? = inconclusive; · = not tested or not shown; & = joins results of further samples; [ ] = dose if it differs, or a comment. Unless noted, the call rests on the fitted dose curve; in most records, active means well fitted curve in the direction sought with a large enough effect; inconclusive means small, poorly fitted or top-dose-only effect, or another doubt; inactive means no such curve, though single readings can be large; an effect the other way counts as inactive or inconclusive. Potency means the concentration at half of the fitted maximal effect.

Values in the order: Cruzain noTriton | StopGo reporter | Lassa entry inh | SARS PLP yeast | MARV entry inh | NS1 function inh | Cruzain inh Det | RE007 growth inh
Cc1cnc(C)c(N(C)NC(=S)Nc2ccccc2)n1
  1% | -12% | 8% | -9% | 19% | 5% | -0.2% | 14%
COc1ccccc1CNC(=O)c1ccccc1C(=O)NC(CC(C)C)C(=O)NCc1ccccc1OC (stereo not given)
  · | -5% | · | 1% | · | 3% | · | -10%
C=CCSc1nc(-c2ccccc2)c2cc(Cl)ccc2n1
  -1% | -27% | -21% | 0% | 3%[46.1 µM] | 6% | -1.0% | 2%
CCOc1cccc(C(=O)Nc2ccc3[nH]ncc3c2)c1
  · | ? | ? | 3% | -28% | 7% | · | -4%
CCOC(=O)c1c(C)[nH]c(CCC(=O)NCc2ccc(N(C)C)cc2)c1C
  -5% | -9% | -7%[46.1 µM] | · | · | · | 1.7% | ·
O=c1cc(CN2CCOCC2)c2cc(Cl)c(O)cc2o1
  · | -13% | · | 3% | · | -7% | · | -1%
CCN1CCN(Cc2nnnn2C(C)(C)C)CC1
  -8% | -10% | 9% | ? | ? | -1% | 6.1% | 14%
CC(NC(=O)CCN1C(=O)c2ccccc2C1=O)c1ccccc1 (stereo not given)
  · | 16% | · | 1% | · | -13% | · | 6%
COc1ccc2oc(=O)cc(CN3CCN(C(=O)c4ccccc4F)CC3)c2c1
  4% | -19% | -3%[46.1 µM] | · | 3%[46.1 µM] | · | -6.4% | ·
O=C(CN1CCN(Cc2ccccc2)C1=O)NCc1cccs1
  3% | 1% | · | -3% | · | 2% | 3.2% | 7%
O=C(CSc1nc(=O)n(CCCN2CCOCC2)c2c1CCC2)Nc1cccc(F)c1
  · | -20% | 10% | -2% | -1%[46.1 µM] | · | · | ?
CCC(=O)NCCc1nc2ccccc2n1CC
  1% | -12% | · | 3% | · | 8% | 4.9% | -1%
Cc1ccc(C)c(NC(=O)Cn2c(=O)n(CC3CCCO3)c(=O)c3ccccc32)c1 (stereo not given)
  0% | -25% | 8%[46.1 µM] | · | 3%[46.1 µM] | · | 0.8% | ·
COc1cccc(Cn2cnc3c(NS(=O)(=O)c4cccc(Cl)c4Cl)c(C)c(C)cc32)c1
  ? | ? | ? | 2% | ? | 25% | -2.0% | -12%
Cc1cc(C)cc(N(C(=O)c2csnn2)C(C(=O)NC2CCCCC2)c2cccnc2)c1 (stereo not given)
  · | 12% | ? | -3% | ? | -4% | · | 2%
CC(=O)c1cn(CC(=O)NCC2CCCO2)c2ccccc12 (stereo not given)
  1% | -8% | 7% | 0% | -2%[46.1 µM] | 13% | 0.5% | -29%
COc1cc(/C=N/NC(=S)N/N=C/c2cc(OC)c(OC)c(OC)c2)cc(OC)c1OC
  ? | 25% | 16% | 3% | -19% | 11µM* | 14µM* | 0%
CCOc1ccc(N2CC(C(=O)Nc3cccnc3)CC2=O)cc1 (stereo not given)
  · | -12% | · | 1% | · | 7% | · | 11%
CCOc1ccc(C(=O)N2CCN(c3cccc(Cl)c3)CC2)cc1
  · | 9% | 3% | 0% | 19% | · | · | -8%
CC(C(=O)Nc1ccccc1-c1ccccc1)N1CCOCC1 (stereo not given)
  0% | 6% | -11% | 23% | 20% | -11% | -1.0% | 4%
NS(=O)(=O)c1ccc(NC(=O)COc2ncnc3sccc23)cc1
  · | -8% | 2% | -1% | 1%[46.1 µM] | 4% | · | -3%
Cn1c(=O)c2c(nc(NCC(O)CO)n2CCc2ccccc2)n(C)c1=O (stereo not given)
  3% | -16% | 8% | 0% | -7% | 1% | 4.0% | -2%
COc1ccc(CCNC(=O)C2(C)CCC(=O)N2CCC(C)C)cc1OC (stereo not given)
  3% | -6% | · | -16% | · | 1% | -1.5% | -13%
NC(=O)c1ccc(NC(=O)CN2CCN(C(=O)c3ccco3)CC2)cc1
  · | -8% | · | -4% | · | -4% | · | -1%
CSc1nnc(CSc2cc(C)nc(N(C)C)n2)o1
  8% | -7% | -1% | 20% | 17% | -10% | -2.3% | 3%
CCCC(=O)Nc1cccc(NC(=S)NC(=O)C(C)Oc2ccc(Cl)cc2Cl)c1 (stereo not given)
  -27% | ? | 13% | -18% | ? | ? | 1.7% | 22%
CC1=C(c2ccc(C)c(C)c2)S(=O)(=O)N=C1N1CCN(c2cccc(C(F)(F)F)c2)CC1
  -3% | -7% | -1%[46.1 µM] | · | · | · | -8.1% | ·
CC(=O)N1CCN(C(=O)c2ccc(NS(=O)(=O)c3cc(C)ccc3C)cc2)CC1
  · | 99%[activator] | 0%[46.1 µM] | 0% | -13% | · | · | -12%
N#Cc1cccc(-n2nnnc2-c2ccc3c(c2)OCO3)c1
  -1% | 53%[activator] | 21% | -5% | 10% | -6% | 1.7% | 3%
O=C(Nc1ccc(Br)cc1)N1C[C@H]2C[C@@H](C1)c1cccc(=O)n1C2
  · | -13% | · | ? | · | 3% | · | 5%
CCOc1ccccc1OCC(=O)Nc1cc(C)on1
  · | 2% | 3% | 7% | -25% | · | · | -1%
Cc1sc(NC(=O)c2cccc(N3C(=O)CCC3=O)c2)nc1-c1ccccc1
  · | 1% | -12% | 13% | 4% | · | · | 8%
O=C1N=C(c2ccccc2)S/C1=C\c1cccs1
  20µM* | 45%[activator] | 16% | 2% | ? | -2% | -23% | -25%
Cc1c(Cl)cccc1NC(=O)N1CCN(C(=O)c2nsc3ccccc23)CC1
  -18% | -11% | ? | · | · | · | -18% | ·
CCn1c(=NC(=O)c2ccc(S(=O)(=O)N3CCOCC3)cc2)sc2cccc(OC)c21
  -16% | ? | ? | -2% | ? | 9% | -11% | 0%
CN(C)C(CNC(=O)c1cc(Br)ccc1Cl)c1ccco1 (stereo not given)
  · | 1% | 2%[46.1 µM] | 9% | 1%[46.1 µM] | 2µM* | · | 4%
O=C(COC(=O)/C=C/c1ccccc1)NC(=O)NC1CCCCC1
  · | -5% | -5%[46.1 µM] | 4% | -15%[46.1 µM] | · | · | -1%
c1ccc(-c2noc(CN3CCN(c4cnccn4)CC3)n2)cc1
  · | -3% | 2% | -3% | 6%[46.1 µM] | -8% | · | 4%
CC(=O)Oc1ccc(CC(C(=O)O)N2C(=O)c3ccccc3C2=O)cc1 (stereo not given)
  · | -5% | 11%[46.1 µM] | -5% | 10%[46.1 µM] | 11% | · | -8%
COC(=O)c1ccc(CSc2nncn2N)cc1
  · | 23% | 5% | 2% | ? | · | · | 2%
COc1ccc2c(CC(=O)NCc3cccs3)coc2c1
  · | 61%[activator] | -26% | -1% | -18%[46.1 µM] | -7% | · | -2%
O=C(CNC(=O)c1ccc(Br)cc1)N/N=C/c1ccc[nH]1
  ? | -21% | ? | 19% | ? | -3% | -0.9% | -10%
COc1ccc(C(=O)NCCc2cn3ccccc3n2)cc1
  · | -17% | · | 3% | · | 5% | · | 2%
CCc1ccc(CN(C)CCc2ccccn2)cc1
  2% | -16% | 7% | 8% | ? | -1% | 6.5% | 15%
C/C(CCc1ccc2c(c1)OCO2)=N\N=C(/N)SC1CC(=O)N(c2ccc(Cl)cc2)C1=O (stereo not given)
  -1% | · | -10% | 2% | 1% | -35% | -20% | 16%
O=C1c2ccccc2C(=O)N1CCc1ccccc1
  · | 0% | -2% | · | ? | · | · | 0%
O=Cc1cn(CCOc2ccccc2F)c2ccccc12
  · | -2% | · | -11% | · | 15% | · | 4%
Cc1ccc(O)c(C2=Nc3ccccc3N=C(c3ccc([N+](=O)[O-])cc3)C2)c1
  20µM* | -20% | ? | 19% | 13% | 10% | -7.7% | 16%
CCOc1ccc(C(CCc2ccccc2)NC(=O)c2ccccc2OC)cc1OCC (stereo not given)
  ? | ? | -27% | -2% | ? | -7% | -5.5% | -9%
NC(=O)CSc1nc2ccccc2n1Cc1ccccc1
  -3% | -11% | -3% | 5% | 0% | 10% | -3.7% | 7%
COc1ccc(OC)c(N2C(=O)CC(=O)NC2=O)c1
  · | -16% | · | 12% | · | 12% | · | 9%
Brc1ccc2[nH]ncc2c1
  -10% | · | 14% | -27% | 10% | -13% | -7.2% | -12%
O=C(C(=Cc1ccc(F)cc1)c1ccccc1)c1ccc(O)cc1
  · | ? | ? | · | 2% | · | · | ?
Cc1cccc(-c2nsc(SCC(=O)c3ccc(Cl)cc3)n2)c1
  -8% | 0% | ? | -1% | ? | 0% | -2.1% | -8%
C/C(CC(c1ccccc1)c1c(O)c2ccccc2oc1=O)=N\NC(N)=S (stereo not given)
  ? | -6% | 0% | 11µM* | ? | 3% | ? | -8%
O=C1C2C(C(=O)N1CCN1CCN(Cc3ccc([N+](=O)[O-])cc3)CC1)[C@H]1C=C[C@@H]2C1 (stereo not given in full)
  · | 0% | -4% | -1% | -26% | -3% | · | 2%
COc1ccccc1NC(=O)C1CCCN(S(=O)(=O)c2ccccc2)C1 (stereo not given)
  · | -23% | -2% | 8% | -8% | -2% | · | 12%
Nc1nonc1C(=O)NCCN=Cc1cc(Cc2ccccc2)cc(Br)c1O
  -9% | ? | -6% | -38% | -24%&-24% | -56% | -4.7% | 16µM*
CCN1CCCC1CNC(=O)c1ccc(Sc2ccccc2Cl)c([N+](=O)[O-])c1 (stereo not given)
  · | -21% | -21% | 0% | ? | · | · | -6%
CNC(=O)CCSc1ccc(C)cc1
  -16% | 12% | 1% | -17% | ? | 1% | 0.3% | 16%
CC1CCCN(CCCNS(=O)(=O)c2ccc3c(c2)CCN3C(=O)C2CC2)C1 (stereo not given)
  · | 5% | · | 1% | · | 6% | · | 1%
N=C1SCC(=O)N1c1nc(-c2ccccc2)cs1
  ? | · | ? | -3% | -9% | -12% | -1.2% | -15%
CCOc1nc(NCCN2CCOCC2)nc(Nc2ccc([N+](=O)[O-])cc2)n1
  · | -24% | -12%[46.1 µM] | -1% | -6%[46.1 µM] | · | · | -6%

Screening results deposited in PubChem by National Center for Advancing Translational Sciences (NCATS).
